# VDR inhibitor: Inhibitors of the vitamin D receptor (VDR): qHTS; Vitamin D3 receptor (Homo sapiens), P11473; VDR-SRC2-3 peptide fluorescence polarization, 2 h; Potency, µM, for inactives: max response, negative = inhibition, hits mostly inhibitors; 400,000 compounds, 0.93% hits; active means well fitted inhibition curve with a large enough effect; inconclusive means small, poorly fitted or top-dose-only effect, or another doubt; inactive means no such curve, though single readings can be large or run the other way; further: series mostly up to about 120 µM
# Target sequence (P11473 whole entry, looked up): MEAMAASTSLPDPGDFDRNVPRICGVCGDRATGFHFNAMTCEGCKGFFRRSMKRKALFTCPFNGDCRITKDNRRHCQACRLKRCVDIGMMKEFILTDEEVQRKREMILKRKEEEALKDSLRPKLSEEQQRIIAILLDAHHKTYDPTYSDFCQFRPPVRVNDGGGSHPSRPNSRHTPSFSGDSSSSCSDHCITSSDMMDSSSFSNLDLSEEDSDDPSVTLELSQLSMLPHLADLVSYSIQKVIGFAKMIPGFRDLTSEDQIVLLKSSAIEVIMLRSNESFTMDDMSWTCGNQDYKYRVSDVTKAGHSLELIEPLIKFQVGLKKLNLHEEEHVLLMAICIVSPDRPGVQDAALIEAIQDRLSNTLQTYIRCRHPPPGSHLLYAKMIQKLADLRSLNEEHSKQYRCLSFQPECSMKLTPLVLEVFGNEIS
#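 Inhibition of the VDR/SRC2-3 peptide interaction is quantified by fluorescence polarization. Compounds (23 nl, pintool) incubate with the reagents for 2 hours at ambient room temperature.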
# * = called active by the depositor; ? = inconclusive; & = joins results of further samples. On the % scale 0 is the no-effect control and ±100 the full control effect; potency means the concentration at half of the fitted maximal effect. Some of the compounds tested. The share of hits here may be higher or lower than overall.
VDR inhibitor | SMILES
10% | COc1cccc(N(C(=O)c2ccco2)C(C(=O)NC2CCCC2)c2cccnc2)c1 (centres undefined)
-4% | COc1cc(C(=O)OCC(=O)NC2CCCCC2)cc(OC)c1OC
-15% | Cc1ccccc1N=Nc1c(O)[nH]c2ccccc12
-6% | N#Cc1cccc(CS(=O)(=O)c2ccc(Cl)cc2)c1
18% | NCc1ccccc1CS(=O)(=O)N1CCOCC1
1% | O=C(/C=C/c1cccc([N+](=O)[O-])c1)Nc1cccc(NC(=O)c2ccco2)c1
-2% | COc1ccc(NC(=S)N2CCN(C(=O)c3ccco3)CC2)c(OC)c1
-5%&86% | CCCCCCCCCCCCCCCC[N+](C)(C)CC
-1% | O=C(CNC(=O)c1cccs1)NCC(=O)OCc1ccc(Cl)cc1Cl
2% | CC(C)[C@H](NC(=O)NCc1ccc(Cl)cc1)C(=O)O

# The last six entries of the part before come first, to join the parts:
VDR inhibitor | SMILES
18% | NCc1ccccc1CS(=O)(=O)N1CCOCC1
1% | O=C(/C=C/c1cccc([N+](=O)[O-])c1)Nc1cccc(NC(=O)c2ccco2)c1
-2% | COc1ccc(NC(=S)N2CCN(C(=O)c3ccco3)CC2)c(OC)c1
-5%&86% | CCCCCCCCCCCCCCCC[N+](C)(C)CC
-1% | O=C(CNC(=O)c1cccs1)NCC(=O)OCc1ccc(Cl)cc1Cl
2% | CC(C)[C@H](NC(=O)NCc1ccc(Cl)cc1)C(=O)O
42% | CCC(C)(C)n1nnnc1C(c1cccs1)N1CCc2ccccc21 (centres undefined)
3% | COc1cc(/C=C/C(=O)OCC(=O)Nc2c(C)n(C)n(-c3ccccc3)c2=O)cc(OC)c1OC
4% | CSc1cccc(N2CC(C(=O)Nc3ccccc3N3CCCC3)CC2=O)c1 (centres undefined)
-4% | O=C(N/N=C/c1ccc([N+](=O)[O-])s1)c1ccccc1
5% | O=C(Nc1ccc(Br)cn1)C1CCN(S(=O)(=O)c2cccs2)CC1
1% | CCOC(=O)N1CCN(CC(=O)Nc2cccc(Br)c2)CC1
5% | CC(=O)c1ccc(S(=O)(=O)N2CCC(C(=O)Nc3ncc(C)s3)CC2)cc1
15% | CC(Nc1ccccc1)c1cc(Cl)ccc1O (centres undefined)
-4% | CCC(=O)Nc1cc(C(F)(F)F)ccc1N1CCOCC1
-6% | Cc1ccccc1OCC(=O)OCC(=O)NCc1ccccc1
-5% | COc1ccc(CN2C(=O)C(CC(C)C)Nc3ncnc(N4CCOCC4)c32)cc1 (centres undefined)
-1% | COc1ccc(CN2CCNC(=O)C2CC(=O)N(C)Cc2ccno2)c(F)c1 (centres undefined)
? | COc1ccc(CN2C(=O)c3ccc(C(=O)O)cc3C2=O)cc1
-5% | CC(=O)NC(NC(=S)Nc1ccccc1Br)C(Cl)(Cl)Cl (centres undefined)
? | S=c1[nH]nc(-c2cccc(Cl)c2)n1CCN1CCCCC1
-8% | O=C(NCCCN1CCCC1=O)c1ccc(Cl)c(NS(=O)(=O)c2ccc(F)cc2)c1
-20% | CCOC(=O)N/N=C(\C)c1ccccc1OC(F)F
-1% | Cc1ccc(C(=O)OCC(=O)NC2CC2)cc1S(=O)(=O)N1CCOCC1
-5% | CSc1nc(=S)n(-c2ccc([N+](=O)[O-])cc2)c(C)c1C(C)=O
-19% | Cc1cc(NC(=O)c2cc(-c3ccc(Cl)cc3)on2)nn1Cc1ccc(Cl)cc1

# Some of the entries above, set out differently:
> Cc1ccc(C(=O)OCC(=O)NC2CC2)cc1S(=O)(=O)N1CCOCC1
  VDR inhibitor: -1%

> CCC(C)(C)n1nnnc1C(c1cccs1)N1CCc2ccccc21 (centres undefined)
  VDR inhibitor: 42%

# Additional structures.
VDR inhibitor | SMILES
? | O=C(Nc1ccccc1F)C1CCCN(S(=O)(=O)c2ccccc2)C1 (centres undefined)
-6% | CCOc1ccc2nc(SCC(=O)NCC3CCCO3)c(C#N)cc2c1 (centres undefined)
-9% | C/C(=N\NC(=O)c1nc(C)cc(C)n1)c1ccccc1
-21% | COCCC(=O)N1CCC(Oc2ccc(C(=O)NCc3cccc(C)n3)cc2)CC1
13% | COc1ccc(-c2cn3c(n2)sc2cc(C(=O)NCCC4=CCCCC4)ccc23)cc1
-10%&-10% | COc1cc(NS(=O)(=O)c2ccc3[nH]c(=O)[nH]c3c2)cc(OC)c1
9% | O=c1[nH]c(=O)n(CCCc2ccccc2)cc1-c1ccccc1
3% | O=C(COc1ccccc1-c1nc(-c2ccccc2)no1)Nc1ccccc1[N+](=O)[O-]
-2% | NC(=O)N/N=C/c1ccccc1OC(=O)c1cc2ccccc2oc1=O
-17% | CN(CC(=O)Nc1cc([N+](=O)[O-])ccc1Cl)Cc1ccc(Br)cc1
-12% | Cc1ccccc1N1CCN(Cc2nc(Cc3ccccc3F)no2)CC1
14% | C[C@H](NC(=O)Nc1ccc2c(c1)OCCO2)C(=O)O
-3% | COc1ccc2c(c1)c(CC(=O)O)c(C)n2C(=O)c1ccccc1
2% | Cc1ccc2c(CC(=O)OCc3nc(N)nc(Nc4ccccc4C)n3)coc2c1
9% | CCSc1sccc1C1C(C#N)=C(N)N(c2cccnc2)C2=C1C(=O)CCC2 (centres undefined)
-15% | COCCn1c(CCC(=O)O)nc2c1c(=O)[nH]c(=O)n2CC(C)C
4% | Cc1ccc(CSc2nnc(-n3c(=O)c(C#N)cc4c(=O)n5cccc(C)c5nc43)s2)cc1
20% | CCOc1ccc(NC(=O)c2cc(S(=O)(=O)N3CCOCC3)cs2)cc1
-4% | Cn1c(NN)nc2sc3c(c2c1=O)CCC3
2% | COc1ccc(CCCc2nnc(SCC(=O)NN)o2)c(C)c1
3% | COc1nc(N)nc(CC(=O)C2CC2)n1
-16% | CCc1ccc(-c2csc(NC(=O)C3=NN(c4ccccc4)C(=O)CC3)n2)cc1
13% | Cc1cnc(NS(=O)(=O)c2ccc(Cl)cc2)c(Br)c1
? | CCCOc1ccc(C(=O)C(CN2CCCC2)c2ccccc2)cc1 (centres undefined)
-26% | Cc1ccc(-n2[nH]c(C)c(C=Nc3ccc(S(=O)(=O)Nc4nc(C)cc(C)n4)cc3)c2=O)c(C)c1
4% | Cc1ccc(NC(=O)Cn2c(=O)oc3cc(S(=O)(=O)N4CCCCC4)ccc32)c(C)c1
10% | O=C(NCc1ccccc1Cl)c1ccccc1NC(=O)c1nsc2ccccc12
-5% | CN(c1ccccc1)S(=O)(=O)c1cccc(NC(=O)CN2C(=O)NC3(CCCCC3)C2=O)c1
1% | CC(C1CC1)N(C(=O)NC1CCS(=O)(=O)C1)c1ccccc1 (centres undefined)
9% | COC(=O)c1sc2cccc(F)c2c1S(=O)(=O)Nc1ccc(C)cc1Cl

# Looked up by structure from above:
VDR inhibitor | SMILES
4% | Cc1ccc(NC(=O)Cn2c(=O)oc3cc(S(=O)(=O)N4CCCCC4)ccc32)c(C)c1
? | CCCOc1ccc(C(=O)C(CN2CCCC2)c2ccccc2)cc1 (centres undefined)
9% | COC(=O)c1sc2cccc(F)c2c1S(=O)(=O)Nc1ccc(C)cc1Cl
-26% | Cc1ccc(-n2[nH]c(C)c(C=Nc3ccc(S(=O)(=O)Nc4nc(C)cc(C)n4)cc3)c2=O)c(C)c1
1% | CC(C1CC1)N(C(=O)NC1CCS(=O)(=O)C1)c1ccccc1 (centres undefined)
3% | COc1nc(N)nc(CC(=O)C2CC2)n1

# Further entries.
VDR inhibitor | SMILES
2% | CCCc1cc(=O)oc2cc(C)cc(OC(C)C(=O)N[C@@H](Cc3c[nH]c4ccccc34)C(=O)O)c12 (some centres undefined)
4% | CCCN(CCC)C(=O)CSc1ncccc1C(=O)O
11% | COc1cccc(N2CC(NC(=O)c3ccc(S(=O)(=O)N4CCOCC4)cc3)CC2=O)c1 (centres undefined)
0% | CN(CC(=O)Nc1cccc(F)c1)S(=O)(=O)c1ccc2c(c1)n(C)c(=O)c(=O)n2C
-13% | CCN(C(=O)COC(=O)c1ccc(O)cc1O)c1c(N)n(Cc2ccccc2)c(=O)[nH]c1=O
4% | OC(COc1ccc(Cl)cc1)CN1CCN(c2cccc(Cl)c2)CC1 (centres undefined)
11% | O=C(CSc1cn(CCNC(=O)c2cccs2)c2ccccc12)NC1CCCCC1
-1% | Cc1ccc(NC(=O)c2cc(S(=O)(=O)N3CCOCC3)ccc2Cl)cc1S(=O)(=O)N1CCOCC1
10% | Nn1c(SCC(=O)N2CCOCC2)nnc1-c1ccc(Cl)cc1Cl
? | CC(=O)c1c(N2CCN(c3ccc(F)cc3)CC2)nc(=S)n(-c2ccccc2)c1C
-17% | CCc1ccc(C(=O)NNc2cc(Cl)ccc2Cl)cc1
-14% | CN(CC(=O)NC1CCCc2ccccc21)S(=O)(=O)c1ccc2c(c1)c(=O)n(C)c(=O)n2C (centres undefined)
11% | Cc1ccc(S(=O)(=O)NCC(=O)NCc2cc(=O)n(C)c(=O)n2C)cc1C
9% | CCOC(=O)N1CCN(C(=O)c2ccc(OC)c(OC)c2)CC1
-14% | COC(=O)c1sccc1NC(=O)Nc1ccc(OC)cc1OC
-15% | CC[C@H]1C(c2ccccc2)=NN(c2ccccc2)[C@@H]1CO
11% | O=C(NCc1ccc(F)cc1)c1cc2c(s1)CCCC2
4% | Cn1nnnc1SCc1nc2scc(-c3ccccc3)c2c(=O)[nH]1
3% | COc1ccc(-n2c(=O)c3c4c(sc3n(Cc3ccccc3C)c2=O)CCCC4)c(OC)c1
-15% | Cc1cnc(CN2CCCC(C(=O)c3ccc4c5c(cccc35)CC4)C2)[nH]1 (centres undefined)
-13% | COc1cccc(-n2c(Cc3cc(=O)[nH]c(=O)[nH]3)nnc2SC(C)C)c1
-2% | CN1CCN(CC(=O)NC23CC4CC(CC(C4)C2)C3)CC1
-2% | Cc1ccc(Oc2nc3ccccc3n3c(C)nnc23)c(C)c1
5% | Cc1cc(C)c(NC(=O)COCc2cc(-c3cccs3)on2)c(C)c1
-7% | CC(NC(=O)C1CCC1)c1ccc(Cl)cc1 (centres undefined)
14% | Cn1cccc1C(=O)NC(=O)COC(=O)CC12CC3CC(CC(Br)(C3)C1)C2
10% | O=C(CN1C(=O)CCSc2ccccc21)Nc1ccc2c(c1)OCCO2
-12% | CCOc1ccc(N/C(SC)=C(/C#N)C(N)=O)cc1
4% | CCOC(=O)C1CCCN(C(=O)COc2ccccc2O)C1 (centres undefined)
-8% | CC(=O)Nc1nc2ccccc2n1CCN(C)C
-10% | O=C(Nc1ccc2c(c1)OCO2)C1CC(=O)N(c2ccc3c(c2)OCCO3)C1 (centres undefined)
? | C=C1c2cccc(OC)c2O[C@H](C(=O)OCC)[C@@H]1CCCCCC
-11% | CCCCn1c(N)c(N(CCC(C)C)C(=O)CSc2nc3ccccc3n2C)c(=O)[nH]c1=O
-19% | C[C@]1(C(=O)NCCCNc2ncc(C(F)(F)F)cc2Cl)C=C[C@@H](Cc2ccccc2)N1C(=O)c1ccccc1
8% | O=C(CSc1nc2c(sc3ccccc32)c(=O)n1CCCN1CCCC1)NCc1ccccc1
-22% | Cc1ccc(NS(=O)(=O)c2ccc(-c3ccc(=O)[nH]n3)o2)cc1
3% | Cc1ccc(C(=O)N/C(=C\c2sccc2C)C(=O)NCCCN2CCOCC2)cc1
? | Cc1cc(-c2nnc(SCC(=O)Nc3ccccc3C(F)(F)F)n2N)n[nH]1
18% | O=C(O)CCC(=O)Nc1ccc(Br)cn1
9% | Cc1ccc(S(=O)(=O)N/N=C/c2cccn2-c2ccc(Cl)cc2)cc1
-19% | O=C(NNC(=O)c1ccccc1[N+](=O)[O-])c1ccc(NC(=O)c2ccccc2)cc1
4% | COCCNC(=S)N1CCN(Cc2cccc(OC)c2)CC1
6% | COC(=O)c1cc(C(=O)OCC(=O)c2ccc[nH]2)cc([N+](=O)[O-])c1
2% | Nc1nnc(CSc2ccc(Cl)cc2)s1
-18% | CC(C)c1ccc(CC(C)C2C3=C(CCCC3=O)OC3=C2C(=O)CCC3)cc1 (centres undefined)
-27% | O=C(O)CSc1nc(-c2ccc(Cl)cc2)nc2c1oc1ccccc12
1% | O=C(Cn1cc(S(=O)(=O)Cc2cccc(F)c2)c2ccccc21)N1CCOCC1
-3% | CCOc1ccc2ccccc2c1/C=N/NC(=O)c1cc(C)[nH]n1
-13% | COc1cc2c(cc1NC(=O)CCCCCN1C(=O)CCC1=O)oc1ccccc12
-23% | Cc1onc(C(=O)N2C(C)CCCC2C)c1[N+](=O)[O-] (centres undefined)

# Later entries
VDR inhibitor | SMILES
-10% | COC(=O)c1ccc(COc2ccc3c(C)c(C)c(=O)oc3c2C)o1
-15% | CCOC(=O)C1CCN(c2c(NC3CCCc4ccccc43)c(=O)c2=O)CC1 (centres undefined)
-3% | O=C(CCc1ccc(S(=O)(=O)N2CCOCC2)cc1)Oc1ccccc1
-1% | CCOCCCNc1ncnc2c1nc1n2CCCC1
0% | COc1ccc(CCNC(=O)Nc2cccc([N+](=O)[O-])c2)cc1
-10% | CCOC(=O)c1sc2nc(C)nc(NCc3ccc(F)cc3)c2c1C
8% | CC(=O)Nc1ccc(C(=O)OCc2ccc(Cl)cc2)cc1
-15% | CCOc1ncccc1C(=O)OCC(=O)Nc1cc(S(=O)(=O)N2CCOCC2)ccc1C
-5% | CCc1ccc(NC(=O)c2cccc(NC3=NC4CS(=O)(=O)CC4S3)c2)cc1 (centres undefined)
1% | CC(=O)Nc1ccc(NC(=O)C2CC(=O)Nc3ncnn32)cc1 (centres undefined)
-7% | Cc1ccc(S(=O)(=O)N2CCC(C)CC2)c([N+](=O)[O-])c1
-8% | COc1cc(OC)c(C2C(C(=O)N3CCOCC3)=C(C)NC3=C2C(=O)CC(C)(C)C3)cc1OC (centres undefined)
? | O=C1/C(=C/c2ccccc2)N=C(N2CCOCC2)N1c1cccc(Cl)c1
4% | CCN1CCCC(Sc2nc3c([nH]2)c(=S)n(C)c(=O)n3C)C1 (centres undefined)
-3% | Cc1nnc(N2C(=O)c3oc4ccccc4c(=O)c3C2c2ccc(C(C)(C)C)cc2)s1 (centres undefined)

# Screens (PubChem BioAssay)
